Sfp inh = Sfp phosphopantetheinyl transferase inhibition | Q9F4F7 | Biochemical Sfp PPTase activity, qHTS | Potency, µM, for inactives: max response, negative = inhibition, usual class: inhibitors | 3.5% of 310,000 active | AID 1490; active = well fitted inhibition curve with a large enough effect; inconclusive = small, poorly fitted or top-dose-only effect, or another doubt; inactive = no such curve, though single readings can be large or run the other way;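 note: the enzyme is Sfp with the accession as filed and its product quenches rhodamine fluorescence; potency is the fitted concentration of half-maximal effect; 0% = enzyme reaction without inhibitor and -100% = no enzyme wells; top concentration of the series not given in the record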
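Step 1, compound plus 15 nM Sfp-PPTase, 15 min, room temperature. Step 2, add rhodamine-CoA (5 uM) and BHQ-2-YbbR (12.5 uM). Step 3, read 525/598 nm fluorescence at 0 and 30 min.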
TRPML1 blocker = blocks the human TRPML1 channel; Q9GZU1; 0.02% of 390,000 active; AID 624415; TRPML1-inducible cells, Ca2+ dye fluorescence, FDSS; hits give low values; inhibition of EC80 agonist-evoked calcium signal; activity change, negative = inhibition, % (concentration not given with the values); in the data active means activity change below about -50%; inconclusive means about -30% to -50%; inactive means above about -30%;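 note: stimulus is agonist 54-4 at its EC80 concentration; % is set by controls: 0 for no effect and ±100 for the full control effect; compound concentration not given in the record; the text of the record puts the active cut at -80%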
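TRPML1-DL cells, Tet-induced overnight (~16 h, 37 °C) at 1,500 cells/well, were loaded with Ca8 no-wash dye plus quencher for 45-90 min at room temperature. Compounds were pinned during FDSS kinetic reading; agonist 54-4 at EC80 (4 uM final) then added.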
TRPML1 agonist = activates the human TRPML1 channel; Q9GZU1; TRPML1-expressing cells, Ca2+ dye fluorescence, FDSS; host cell line not named in the record; reference of the full effect not given here; activation, % (concentration not given with the values); 0.12% of 410,000 active; AID 624414; in the data active = activation above about 50%; inconclusive = about 30% to 50%; inactive = below about 30%; note: 0% is about no effect; the text of the record puts the active cut at 80%
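TRPML1-DL cells, Tet-induced overnight (~16 h, 37 degrees C), loaded 45-90 min at room temperature with Ca8 no-wash calcium dye plus quencher. FDSS fluorescence: 10 s baseline, compound pin-transfer, 110 s agonist read, then EC80 54-4 (4uM final) and 110 s antagonist read.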
Menin-MLL FL inh = menin-MLL binding inhibition, fluorescein peptide. Fluorescence polarization, fluorescein-MLL peptide displacement from menin. FP activity change, % at 61.4 µM. AID 1766. 290,000 tested, under 10 active; inconclusive = falling polarisation curve, or a change in total fluorescence; inactive = total fluorescence flat and polarisation flat or rising; no compound was filed as active; the % refers to the polarisation; negative = inhibition;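 note: % of control where 0% means no effect; inhibitors lower the polarisation; unlabelled MLL peptide was the positive control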
ClpP mod = qHTS Assay for Activators of ClpP; purified B. subtilis ClpP, FRET peptide cleavage, 20 min; Potency, µM (series often up to 57.5 µM), for inactives: at the top dose activity change, negative = active; 1.9% of 340,000 active; AID 651965, 2013; active = well fitted falling curve with a large enough effect; inconclusive = small, poorly fitted or top-dose-only effect; inactive = no such curve, though single readings can be large or run the other way; note: potency is the fitted concentration of half-maximal effect; the source files actives as falling curves though it sought activators and does not explain the sign; nearly all actives have a fitted effect of over 65% in size; many hits overshoot -100%
Target sequence (P80244 whole entry, looked up): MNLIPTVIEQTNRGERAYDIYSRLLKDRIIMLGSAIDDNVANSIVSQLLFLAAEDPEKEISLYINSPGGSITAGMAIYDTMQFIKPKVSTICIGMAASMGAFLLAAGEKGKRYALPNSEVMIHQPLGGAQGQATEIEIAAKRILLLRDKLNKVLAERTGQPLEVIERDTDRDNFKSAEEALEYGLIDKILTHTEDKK
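ClpP 10 microg/mL final, pH 8 Tris/KCl buffer with BSA, glycerol, Tween-20; compound pinned in; FRET-FV substrate; RT 20 min; Ex320/Em430; ΔFRET vs ADEP 5.8 microM, DMSO, no enzyme.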
PINK1 modulator = PINK1 expression modulation | PINK1 immunofluorescence, high-content cytometry, 24 h | Potency, µM (top dose mostly 76.6 µM), for the others: at the highest dose activation (PINK1 increase), actives largely listed as activators | 0.2% of 410,000 active; active = well fitted activation curve with a large enough effect; inconclusive = small, poorly fitted or top-dose-only effect; inactive = flat fitted curve, though single readings scatter; cell line not stated here;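 note: potency is the fitted concentration of half-maximal effect; % of control where 0% means no effect; nearly all actives have a fitted effect of over 65% in size; a mitochondrial uncoupler was the plate control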
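PINK1 protein level read as immunofluorescence by microplate cytometer in a fixed, stained stable cell line after 24 h exposure to five compound concentrations, with CCCP as control.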
TRPV1 PAM = human TRPV1 potentiation; TRPV1-expressing cells, Fluo-8 calcium influx, capsaicin EC20 potentiation; host cell line not named in the record; control for the full effect not named in the record; Q8NER1; 0.02% of 320,000 active; potentiation, % at 8.33 µM; active means potentiation above 80%; inconclusive means 30% to 80%; inactive means below 30%; note: 0% is about no effect
Target sequence (Q8NER1 whole entry, looked up): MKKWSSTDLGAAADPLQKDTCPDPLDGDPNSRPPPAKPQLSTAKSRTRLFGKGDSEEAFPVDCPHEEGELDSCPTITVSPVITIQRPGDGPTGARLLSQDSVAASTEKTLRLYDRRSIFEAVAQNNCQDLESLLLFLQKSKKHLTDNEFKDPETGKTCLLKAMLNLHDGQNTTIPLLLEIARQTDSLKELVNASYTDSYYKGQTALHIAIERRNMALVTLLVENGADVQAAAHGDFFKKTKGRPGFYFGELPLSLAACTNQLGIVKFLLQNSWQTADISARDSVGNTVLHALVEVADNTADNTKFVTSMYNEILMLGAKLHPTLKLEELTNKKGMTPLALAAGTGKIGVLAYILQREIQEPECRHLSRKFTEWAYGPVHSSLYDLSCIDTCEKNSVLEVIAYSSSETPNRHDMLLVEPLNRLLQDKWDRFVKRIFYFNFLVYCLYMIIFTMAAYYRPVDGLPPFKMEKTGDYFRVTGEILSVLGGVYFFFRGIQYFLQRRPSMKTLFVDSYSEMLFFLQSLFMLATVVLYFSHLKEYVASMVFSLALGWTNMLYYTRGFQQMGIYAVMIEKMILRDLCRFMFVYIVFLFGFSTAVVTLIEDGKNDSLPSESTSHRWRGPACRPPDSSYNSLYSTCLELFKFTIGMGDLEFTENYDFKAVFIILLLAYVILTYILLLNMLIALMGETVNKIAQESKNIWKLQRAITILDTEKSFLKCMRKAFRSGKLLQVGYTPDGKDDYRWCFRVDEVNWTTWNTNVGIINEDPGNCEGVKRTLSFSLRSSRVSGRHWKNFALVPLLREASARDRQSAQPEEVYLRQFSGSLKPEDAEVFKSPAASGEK
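TRPV1-expressing cells were cultured overnight at 35.5C and loaded with Fluo-8 calcium dye for 40 to 90 min at room temperature. After a 10 s baseline, compound was added and calcium influx was read kinetically for 3 min (ex 480/em 520 nm).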
The depositor's hits bear a star; ? = inconclusive; · = no result given; & = joins results of further samples.

canonical_smiles	Sfp inh	TRPML1 blocker	TRPML1 agonist	Menin-MLL FL inh	ClpP mod	PINK1 modulator	TRPV1 PAM
CN1CCc2c(sc(NC(=O)CS(=O)(=O)c3ccc(F)cc3)c2C(N)=O)C1	·	34	1.9	·	-4.9%	0.3%	8
COc1ccc(C(=O)Nc2cc3c4c(c2)C(C)C(=O)N4CCC3)cc1 (stereo not drawn)	·	-11	0.2	·	1.1%	6.6%	-13
CCCSc1ccc([C@@H]2[C@@H]3C(=O)N(C)C(=O)[C@@H]3[C@]3(C(=O)OC)CCCN23)cc1OC	·	2	-0.3	·	?	2.5%	-48
COc1cc(OC)c(OC)cc1/C=C/c1nc2cc3ccccc3cc2c(=O)n1-c1ccc(Cl)cc1	·	-24	0.5	·	-2.3%	3.2%	·
O=C(O)c1nn(-c2cccc(Cl)c2)c(=O)cc1O	-17%	-3	0.6	-0.6	·	2.4%	3
CCCCCOc1ccc(Cn2c(=O)oc3ccc(C)cc32)cc1OC	·	-6	0.8	·	-0.3%	3.0%	·
O=C(NCCc1nnc2ccc(NCc3ccc(F)cc3)nn12)c1ccccc1	10%	2	-0.7	3.6	-16%	0.9%	8
Cn1cc(CC(=O)NC2CCCCC2)c2ccccc21	5%	20	5.1	-2.5	-10.0%	1.2%	-2
CC(NC(=O)COC(=O)c1ccc2ccccc2n1)C1CC2CCC1C2 (stereo not drawn)	5%	9	0.4	17	·	-0.5%	-6
O=C(Oc1cccc(-c2cnc3ccccc3n2)c1)c1ccco1	-26%	10	1.3	-0.7	-1.2%	-2.8%	-8
COC(=O)c1ccc(OCC2c3cc(OC)c(OC)cc3CCN2C(=O)c2ccc(OC)cc2)cc1 (stereo not drawn)	·	13	1.4	·	-1.0%	15%	·
O=S(=O)(Nc1ccc2nc(-c3ccc(Br)o3)[nH]c2c1)c1ccccc1	50µM*	·	·	1.7	·	·	11
O=S(=O)(c1cccc(C(F)(F)F)c1)N(CCCN1CCOCC1)Cc1cccs1	?	3&5	-0.3&-0.4	3.7&-2.1	0.4%	0.8%&0.9%	-5&-15
COc1ccc(Cl)cc1C(=O)Nc1ccc(-c2nnc3n2CCCCC3)cc1	·	9	-0.4	·	?	0.2%	·
CCOC(=O)c1c(-c2cccc([N+](=O)[O-])c2)csc1NC(=O)C1CCCCC1	5%	12	0.6	2.6	-0.8%	-0.8%	9
COc1ccc(C(=O)NC(C(=O)N2CCN(c3ccccc3O)CC2)C(C)C)cc1 (stereo not drawn)	8%	11	-1.1	-0.2	0.5%	2.8%	-5
COc1ccccc1-c1nc2ccccc2nc1-c1ccccc1	-5%	46	5.1	·	?	0.8%	-19
CCOC(=O)C1=CN(CC)S(=O)(=O)NC1c1ccc(F)c(Cl)c1 (stereo not drawn)	·	-2	0.1	·	-3.1%	0.7%	·
CC(C)N1CCC(N2CCN(Cc3cc4c(cc3Cl)OCO4)CC2CCO)CC1 (stereo not drawn)	16%	-12	-0.6	2.3	·	-0.2%	0
O=C(COc1ccc(Cl)cc1Cl)Nc1ccccc1NS(=O)(=O)c1cccs1	7%	-11	0.0	-1.5	·	4.5%	11

Next part
canonical_smiles	Sfp inh	TRPML1 blocker	TRPML1 agonist	Menin-MLL FL inh	ClpP mod	PINK1 modulator	TRPV1 PAM
COc1ccc(NC(=O)C2CCCN(c3cnccn3)C2)cc1 (stereo not drawn)	8%	5	4.1	·	-17%	-0.5%	-11
Cn1c(=O)c2c(nc(N3CCN(c4ccccc4)CC3)n2CCCc2ccccc2)n(C)c1=O	-4%	-2	-0.7	0.3	-0.5%	4.6%	-7
CC(=O)N1CCN(c2ccc(NC(=O)c3ccc([N+](=O)[O-])o3)cc2Cl)CC1	13%	0	-0.5	4.3	·	6.8%	-4
OC(Cc1ccncc1)(c1ccccc1)c1ccccc1	·	11	0.3	·	-2.9%	0.7%	14
Cc1nc2ccccc2n1CC(=O)N/N=C/c1cccnc1	20%	-5	0.3	0.8	-0.9%	0.8%	9
C=C(C)Cn1c(C)cc(C)c(S(=O)(=O)c2ccc(C)cc2)c1=O	2%	9	0.3	-5.0	·	3.3%	2
CCC(CC)NC(=O)c1cccc(NC(=O)C(C)C)c1	18%	7	-0.9	·	·	0.9%	4
COc1cc(CNC(C)C)c(Br)cc1OC1CCCC1	22%	8	0.8	-0.7	·	-0.6%	-4
C[C@H](CO)N1C[C@H](C)[C@@H](CN(C)C(=O)NC2CCCCC2)Oc2c(NC(=O)CCC(F)(F)F)cccc2C1=O	·	-5	-0.2	·	-5.6%	1.1%	·
Cc1ccc(NC(=O)/C=C/c2ccc([N+](=O)[O-])s2)c(C)c1	-13%	0	-0.6	?	1.5%	?	?
O=C(Cn1c(=O)oc2cc(S(=O)(=O)N3CCCC3)ccc21)Nc1cccc(C(F)(F)F)c1	2%	2	0.1	-4.7	-1.2%	0.9%	-3
CCC(C)c1ccc(NC(=O)COC(=O)CCNC(=O)c2ccco2)cc1 (stereo not drawn)	·	2	-0.4	·	0.9%	1.8%	-7
OC(Cn1cncn1)(Cn1cncn1)c1ccc(F)cc1F	7%	?	0.0	-0.2	1.5%	0.4%	·
CC(NC(=O)C1CCCC1)c1ccc2c(c1)OCCO2 (stereo not drawn)	21%	-7	-0.4	1.0	1.2%	1.6%	-6
CCOc1ccc(S(=O)(=O)N2CCN(C(=S)NCc3ccccc3)CC2)cc1	13%	10	-0.6	-0.8	-0.3%	-0.5%	17
Cc1ccc(NC(=O)NNC(=O)COc2ccc(Cl)cc2)cc1	·	40	-0.5	·	0.3%	1.2%	·
COc1ccc(OC)c(CN2CCN(C(=O)c3ccc(NS(=O)(=O)c4cccc([N+](=O)[O-])c4)cc3)CC2)c1	·	0	0.0	·	1.5%	-0.2%	15
O=C(O)Cn1cc(C(=S)N2CCCCC2)c2ccccc21	22µM*	-2	-0.6	4.9	0.9%	2.2%	1
CC(C)(C)OC(=O)NNC(=O)c1ccc(Cl)cc1	-2%	-11	-0.8	-1.2	-2.0%	3.5%	4
C=CCOc1c(Cl)cc(CNc2ccc(C)c(Cl)c2)cc1OC	?	·	·	-3.6	·	·	5

(next part)
canonical_smiles	Sfp inh	TRPML1 blocker	TRPML1 agonist	Menin-MLL FL inh	ClpP mod	PINK1 modulator	TRPV1 PAM
O=C(CCc1ccc(S(=O)(=O)N2CCOCC2)cc1)NN=C1CCCCCCC1	13%	-10	0.1	-0.7	0.7%	2.5%	21
CCC(CC)C1C(C#N)=C(N)SC(N)=C1C#N	10%	23	1.7	11	0.0%	-1.4%	11
COc1ccc(Cn2nc3n(c2=O)-c2ccccc2OC3)cc1	·	-14	0.7	·	-2.2%	-1.1%	·
O=C1C(=O)N(CCOCCO)C(c2ccccn2)/C1=C(\O)c1ccccc1 (stereo not drawn)	-12%	11	-0.3	-0.8	0.4%	-1.5%	-8
COc1ccc(OCC(=O)OCCN(C)C)cc1	-14%	4	-0.4	-1.5	-1.1%	3.5%	-10
Cc1ccc(CSCCNC(=O)CN(c2ccc(F)cc2)S(C)(=O)=O)cc1	7%	-9	0.6	0.8	0.9%	1.9%	4
COc1ccc(S(=O)(=O)Nc2c(C)nc3nc(C)[nH]n3c2=O)cc1	11%	25&-8	1.1&-0.5	4.9	-2.0%	-1.0%&-0.8%	-39
CC(C)(CNC(=O)c1cc(=O)[nH]c2ccccc12)N1CCOCC1	3%	-7	-0.6	5.4	0.5%	-0.1%	2
Cn1nnc2cc(C(=O)NCc3ccc4c(c3)OCO4)ccc21	-3%	-4	2.5	0.6	-0.4%	-1.8%	-2
COc1cccc(-n2c(SCc3cccc(C)c3)nc3c([nH]c4ccccc43)c2=O)c1	·	18	1.0	·	-17%	0.2%	·
CCN1CCCC1CNC(=O)c1cc2cc(F)ccc2[nH]1 (stereo not drawn)	5%	·	·	-3.3	3.8%	0.2%	?
CCOC(=O)c1c(NC(=O)Cn2c(=O)oc3ccccc32)oc(C)c1C(C)=O	7%	25	0.6	3.4	-11%	3.0%	4
O=S(=O)(c1ccc(F)c2ccccc12)N1CCCCC1	-11%	-1	1.5	0.7	-1.2%	7.2%	-1
N#CCC1(O)C(=O)N(Cc2ccccc2)c2ccccc21 (stereo not drawn)	·	·	-0.3	·	0.7%	1.2%	·
COc1ccccc1C(=O)OC(C)CN1CCN(C)CC1 (stereo not drawn)	25%	·	·	-0.4	-5.7%	1.3%	17
COc1cccc(NCc2cccn2-c2nnc(N3CCC(C)CC3)s2)c1	·	-12	3.5	·	1.9%	-3.7%	·
Cc1ccc(C)c(S(=O)(=O)NC(C)C(=O)NCc2ccccn2)c1 (stereo not drawn)	2%	-3	0.4	·	-1.8%	-0.6%	-1
COc1cc(NC(=O)C2Cc3ccccc3N2C(=O)c2ccccc2)cc(OC)c1 (stereo not drawn)	·	24	4.2	·	4.5%	-0.4%	·
CC(C)OCCCNC(=O)CN1C(=O)CSc2ccc(S(=O)(=O)N3CCOCC3)cc21	·	0&-12	-0.4&0.4	·	-1.8%&0.6%	-0.4%&-0.4%	·
CCc1ccc2c(c1)C1(NN=C(c3cccc4ccccc34)S1)C(=O)N2 (stereo not drawn)	-3%	·	·	2.9	·	·	17

Structures above with an aryl thioether with sulfur outside any ring:
canonical_smiles	Sfp inh	TRPML1 blocker	TRPML1 agonist	Menin-MLL FL inh	ClpP mod	PINK1 modulator	TRPV1 PAM
CCCSc1ccc([C@@H]2[C@@H]3C(=O)N(C)C(=O)[C@@H]3[C@]3(C(=O)OC)CCCN23)cc1OC	·	2	-0.3	·	?	2.5%	-48
COc1cccc(-n2c(SCc3cccc(C)c3)nc3c([nH]c4ccccc43)c2=O)c1	·	18	1.0	·	-17%	0.2%	·

Screening results from PubChem.
